Rce1 inh – inhibitors of yeast Ras-converting enzyme; yeast membranes, quenched prenylated peptide cleavage fluorescence; calls only; 0.27% of 290,000 active;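 active means fall in fluorescence gain of 50% or more versus controls, with final raw signal at or below 3038400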;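 further: plate controls were neutral control wells for no effect and wells lacking membranes for full effect; tested at 10 µM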
PABP FP inh – PABP-poly(A) binding inhibition; P11940; PABP-poly(A) RNA binding, fluorescence polarization; inhibition, % at 35 µM; 1% of 290,000 active;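 active means 50% or more with normal probe brightness, or confirmed in later tests; about a fifth of its hits are not listed in these tables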;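 further: calls also rest on retests at 20 µM and on dose response follow-up; controls were probe without protein and protein plus probe with vehicle; some compounds called inactive have numbers as strong as hits; many hits fall short of the cut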
Target sequence (P11940 whole entry, looked up): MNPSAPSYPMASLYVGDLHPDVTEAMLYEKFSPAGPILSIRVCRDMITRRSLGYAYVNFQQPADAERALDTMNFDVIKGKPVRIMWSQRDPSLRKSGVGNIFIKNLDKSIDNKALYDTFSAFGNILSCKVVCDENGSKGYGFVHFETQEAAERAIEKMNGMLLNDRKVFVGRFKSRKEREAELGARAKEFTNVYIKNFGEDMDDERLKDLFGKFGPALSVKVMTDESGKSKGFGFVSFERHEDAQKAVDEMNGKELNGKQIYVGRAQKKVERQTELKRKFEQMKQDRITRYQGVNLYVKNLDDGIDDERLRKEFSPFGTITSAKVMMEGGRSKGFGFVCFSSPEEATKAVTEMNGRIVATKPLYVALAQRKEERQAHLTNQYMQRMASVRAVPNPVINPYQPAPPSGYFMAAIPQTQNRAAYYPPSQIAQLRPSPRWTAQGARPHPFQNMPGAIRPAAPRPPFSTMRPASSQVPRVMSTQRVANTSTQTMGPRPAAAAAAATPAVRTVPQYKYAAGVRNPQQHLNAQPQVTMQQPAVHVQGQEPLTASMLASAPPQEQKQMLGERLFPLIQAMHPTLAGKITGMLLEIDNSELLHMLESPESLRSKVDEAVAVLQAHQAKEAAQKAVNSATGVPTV
eIF4H FP inh – inhibitors of RNA binding by human eIF4H. eIF4H fluorescence polarization binding assay. inhibition, % at 35 µM. 0.94% of 290,000 active. AID 2012;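 active means 50% or more with normal probe brightness, or confirmed in later tests; about a fifth of its hits are not listed in these tables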;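 further: calls also rest on retests at 20 µM and on dose response follow-up; 0% = protein and probe with vehicle and 100% = probe without protein; strong numbers were not always called active; many hits fall short of the cut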
CSC inhib – blocks cancer stem cells. cancer stem cell-like cells viability, luminescence. inhibition, % at 7.5 µM. 1.1% of 300,000 active. AID 2717;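 active means mean at 75% or more and at least half the replicates too; tested in HMLE shEcad cells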;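 further: 0% = median of negative and 100% = median of positive control wells; the first replicate is given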
UUG fidelity – alters start codon recognition fidelity in yeast; S. cerevisiae UUG-firefly luciferase reporter, luminescence/redox ratio; activity score, % at 18.7 µM; 0.13% of 350,000 active; AID 602363;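 active means replicate mean at a twofold rise or more, about +100% in these data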;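 further: firefly luciferase made from a UUG start codon reports start codon fidelity; reporter light over untreated wells divided by growth signal over untreated wells; some hits fall short of that in this replicate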
MT1-MMP act inh – blocks activation of human MT1-MMP; HT1080 RFP-PRO-GFP cells, GFP/RFP ratio fluorescence, overnight; percent of plate control window, DMSO zero; GFP/RFP ratio change, % at 20 µM; 0.061% of 360,000 active;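 active means GFP/RFP ratio change of at least 30% with cell ATP level not reduced by more than half and red fluorescence within 50% of control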; further: strong numbers were not always called active
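Test system: HT1080 RFP-PRO-GFP cells; Benchmarks: DMSO and RFP-L50D-GFP cell wells; Timing: cells overnight before dosing, compound overnight, 37 °C, 5% CO2; Compound: one 20 µM compound dose with 1% DMSO; Read-out: GFP/RFP fluorescence ratio.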
Env fusion inh – HIV envelope-mediated fusion inhibition. inhibition, % at 12.3 µM. HeLa-JRFL Env/CEM21 cell fusion, luciferase. AID 651610. 1.1% of 360,000 active;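 active means mean replicate inhibition score of at least 50 and every replicate individually at or above 50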;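 further: 0% = plate neutral controls and 100% = maraviroc near 300 nM; one replicate is shown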
MT1-MMP act inh RFP – second read-out of MT1-MMP act inh, no call of its own (marks repeat the call); RFP signal change, %; measured here: RFP expression control read;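 0 = vehicle wells; hits needed this value within 50% of zero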
* = called active by the depositor; i = inactive; . = not tested or not shown. Rows were taken by chance; overall some 3% were active at least once.

SMILES | Rce1 inh | PABP FP inh | eIF4H FP inh | CSC inhib | UUG fidelity | MT1-MMP act inh | MT1-MMP act inh RFP | Env fusion inh
CC(C)(C)n1ncc2c(=O)n(CC(=O)N3CCc4ccccc43)cnc21 | i | -2 | -3 | -2 | -13 | 8 | 6 | .
COc1ccc(N(CC(O)CN2CCCCC2)S(=O)(=O)c2ccc(C)cc2)cc1 (stereo unspecified) | i | 5 | -13 | -23 | 6 | 0 | 5 | -1
CCCCC(=O)Nc1cc(OC)c(NC(=S)Nc2ccc(OC)cc2)cc1OC | . | . | . | . | -22 | 4 | 7 | 4
Fc1ccccc1CSc1nc2ncc(Br)cc2[nH]1 | i | 15 | -5 | 20 | -5 | -5 | -1 | .
N#Cc1ccc(-c2ccc(F)cc2)nc1Oc1ccc(F)cc1 | i | 1 | -8 | -2 | -8 | 2 | 4 | 11
O=[N+]([O-])c1cc([N+](=O)[O-])c(Oc2cncc(Cl)c2)cc1NN1CCCCC1 | i | 5 | 1 | 37 | -9 | 3 | 2 | 29
Cc1oc(C)c(S(=O)(=O)NCc2cccs2)c1C(=O)O | i | -6 | -5 | -2 | -13 | 0 | 1 | -9
CSc1ncc(Cl)c(C(=O)Nc2cccc(Cl)c2)n1 | i | -5 | -4 | -2 | -7 | -1 | 1 | -8
Cc1cccc(-c2nc(Nc3ccc(O)cc3)c3ccccc3n2)c1 | i | 10 | -8 | 94* | -9 | 0 | -5 | 19
CCOC(=O)c1cc(-c2ccc(OC)cc2)nn1-c1ccc(C(=O)O)cc1 | i | 14 | 8 | -8 | 1 | 2 | 1 | 4
COc1ccc(/C=N/NC(=O)c2ccccc2)cc1OS(=O)(=O)c1ccccc1 | i | 14 | 2 | 21 | . | 10 | -2 | 4
COc1ccccc1[C@H]1C(c2ccc(F)cc2)=NN(c2ccccc2)[C@@H]1CO | . | . | . | . | -4 | 2 | 2 | -79
COc1ccccc1-c1nnc(NC(=O)C(C)C)s1 | i | -2 | -5 | -10 | 16 | 4 | 4 | .
CC(C)C(N)c1csc(Nc2nncc3ccccc23)n1 (stereo unspecified) | . | . | . | . | -11 | -5 | -2 | -102
CCS(=O)(=O)N1CCN=C1SCc1cccnc1 | i | -16 | -8 | -1 | . | -3 | -2 | -12
CCOC(=O)[C@@H]1[C@H]2COc3ccc(Br)cc3[C@@H]2N2C(=O)N(c3ccc(Cl)cc3)C(=O)[C@@]12C | . | . | . | -3 | -10 | 0 | -6 | 67*
Cc1c(Cc2ccccc2)c(NCCN(C)C)n2c(nc3ccccc32)c1C#N | i | -16 | -10 | -13 | -11 | 8 | -11 | 2
COc1cc(NC(=S)N2CCCC(CO)C2)c(OC)cc1Cl (stereo unspecified) | i | -2 | 0 | -12 | . | 2 | -1 | 1
CC1CCCC(NC(=O)NC(=O)CCl)C1C (stereo unspecified) | i | 0 | -17 | -11 | . | 0 | 3 | 17
O=C(NC1CCCc2ccccc21)c1ccccn1 (stereo unspecified) | i | 3 | -12 | -15 | 4 | -1 | 2 | 2
CCn1cc(Cl)c(C(=O)Nc2ccccc2C(N)=O)n1 | i | -14 | 0 | -5 | 0 | 3 | 4 | -6
O=C(Cn1cnc2ccccc2c1=O)N(Cc1ccco1)c1ccc(O)cc1 | i | 3 | -9 | -15 | -18 | 8 | 2 | .
O=C(CCc1ccccc1)NCCc1ccc(F)cc1 | i | -6 | -1 | 6 | -16 | -1 | 3 | -2
Cc1ccccc1-n1ncc2c1CC(C)(C)CC2NC(=O)C1CCC1 (stereo unspecified) | i | . | . | -11 | -13 | -2 | 0 | 5
CCCCCCCNC(=O)CN1C(=O)CSc2ccc(S(=O)(=O)N3CCOCC3)cc21 | i | . | . | -13 | 3 | -1 | 2 | 7
COc1ccc(N2CCN(CCNC(=O)Nc3cc(Cl)ccc3OC)CC2)cc1 | i | -4 | -6 | 0 | -3 | 1 | -3 | 9
CCOC(=O)C1CCN(C(=O)CN2C(=O)C(C(C)C)Oc3ccccc32)CC1 (stereo unspecified) | i | 7 | 0 | 0 | 6 | 1 | -1 | 1
CCN1C(=O)[C@H]2[C@@H](c3ccc(C)cc3)N3C(=O)N(c4cccc(Br)c4)C(=O)[C@@]3(C)[C@H]2C1=O | . | . | . | . | -5 | -7 | -3 | 28
COc1ccc(C(=O)O/N=C(\N)Cc2cccs2)cc1OC | i | 0 | -3 | -3 | -17 | -4 | -2 | 20
Cc1cccc(NC(=O)CNC(=O)COc2ccc(C(=O)c3ccc(F)cc3)cc2)c1C | i | 2 | -6 | . | . | -6 | -18 | 27
CCOC(=O)c1c(C)n(C)c2ccc(OC)c(NC(=O)c3cccs3)c12 | i | 14 | 1 | -2 | -2 | 3 | 7 | -26
Cc1ccc(C(=O)NCc2ccc3c(c2)CCO3)cc1C | i | -7 | -4 | 0 | . | 2 | -3 | -8
CCOC(=O)c1ccc(NS(=O)(=O)c2cccc3nsnc23)cc1 | i | 0 | 0 | -11 | -11 | 3 | -3 | .
CN(CC(=O)NC(=O)NCc1ccccc1)CC(=O)Nc1ccc(Cl)c(Cl)c1 | . | . | . | 9 | 0 | -3 | -6 | 9
COCc1[nH]nc2c1C1(C(=O)Nc3ccc(F)cc31)C(C#N)=C(N)O2 (stereo unspecified) | i | -3 | -6 | 1 | -1 | -1 | -5 | -63
COc1ccc(N=C2C(=Nc3ccc(OC)cc3)N(c3ccccc3)C(=S)N2C(=O)c2ccc(Cl)cc2)cc1 | i | -14 | -3 | -11 | -31 | 10 | 8 | -225
COc1ccc(NC(=O)CN(C)C(=O)c2ccc3c(c2)CC(c2ccccc2)OC3=O)cc1 (stereo unspecified) | . | . | . | . | 11 | 1 | 3 | -27
Cc1cc(C)cc(C(=O)Nc2cccnc2Cl)c1 | . | 7 | -8 | 0 | -3 | 1 | 4 | 2
O=C(NNC(=S)NCc1ccc(Cl)cc1)c1ccc2c(c1)OCO2 | i | -6 | 2 | 0 | . | 0 | 1 | -1
Cc1ccc(S(=O)(=O)NCC(=O)N(CC(=O)NC2CCCCC2)Cc2ccco2)cc1 | i | -5 | -14 | 14 | 4 | -1 | -2 | .

One compound at a time, from the list above. Order of values: Rce1 inh	PABP FP inh	eIF4H FP inh	CSC inhib	UUG fidelity	MT1-MMP act inh	MT1-MMP act inh RFP	Env fusion inh
`COCc1[nH]nc2c1C1(C(=O)Nc3ccc(F)cc31)C(C#N)=C(N)O2` (stereo unspecified) in the list: i	-3	-6	1	-1	-1	-5	-63
`COc1ccc(C(=O)O/N=C(\N)Cc2cccs2)cc1OC` in the list: i	0	-3	-3	-17	-4	-2	20
`CCCCCCCNC(=O)CN1C(=O)CSc2ccc(S(=O)(=O)N3CCOCC3)cc21` in the list: i	.	.	-13	3	-1	2	7
`O=C(Cn1cnc2ccccc2c1=O)N(Cc1ccco1)c1ccc(O)cc1` in the list: i	3	-9	-15	-18	8	2	.
`Cc1cc(C)cc(C(=O)Nc2cccnc2Cl)c1` in the list: .	7	-8	0	-3	1	4	2

Next section
SMILES | Rce1 inh | PABP FP inh | eIF4H FP inh | CSC inhib | UUG fidelity | MT1-MMP act inh | MT1-MMP act inh RFP | Env fusion inh
COc1ccc(-n2cc3c(-c4cccc(Br)c4)nnc(C)c3n2)cc1 | i | -9 | -5 | 3 | . | -48 | 13 | -43
CS(=O)(=O)Nc1cccc(NC(=O)c2cccc3c(-c4ccc(F)c(F)c4)coc23)c1 | . | . | . | . | -8 | 1 | -4 | 2
COc1ccccc1NC(=O)CSc1nnc(C)n1Cc1ccccc1 | i | -19 | -7 | -9 | -8 | 0 | 0 | .
CC(=O)Nc1nc(-c2ccccc2)nc(C)c1C(C)=O | i | 1 | -5 | -7 | 5 | 7 | 2 | .
COc1ccc(-c2coc3cc4oc(=O)c5ccccc5c4cc23)cc1F | i | -6 | 3 | . | . | 11 | 4 | 8
COC(=O)C(NC(C)=O)(Nc1ccc(Br)cc1)C(=O)OC | i | -3 | 3 | -2 | 19 | 3 | 3 | .
O=C(NCc1ccc(Cl)cc1)C(=O)NCC(c1ccco1)N1CCOCC1 (stereo unspecified) | i | 5 | -6 | -8 | -10 | -3 | 0 | .
O=S(=O)(Nc1cccc(CO)c1)c1cccs1 | i | 5 | -6 | . | 8 | 1 | -4 | 11
CCCCCCNCc1c(F)cccc1Cl | i | 1 | 1 | -1 | . | 3 | 8 | -17
CCN(CC(=O)Nc1ccc(N2CCOCC2)cc1)C(=O)Cc1ccccc1 | . | . | . | . | -10 | 1 | 3 | 5
COc1ccc(S(=O)(=O)N/N=C(/C)c2ccncc2)cc1OC | i | -1 | -13 | 7 | -7 | -5 | -2 | -5
CC(=O)c1c(C)[nH]c(C(=O)COC(=O)CCOc2ccc(C)cc2)c1C | i | . | . | -10 | 1 | -6 | -5 | 12
O=C(c1ccc2c(c1)OCO2)C1CCCN(Cc2cccc(C(F)(F)F)c2)C1 (stereo unspecified) | i | -8 | -10 | 11 | -11 | 0 | 1 | .
COCC(C)NC(=O)c1ccccc1[N+](=O)[O-] (stereo unspecified) | i | 6 | 9 | -1 | -8 | -1 | 1 | -4
CCCOC(=O)C[N+](C)(C)CCOC1CC2CCC1(C)C2(C)C (stereo unspecified) | i | -4 | -8 | -1 | . | -2 | -3 | -3
COc1ccc(/C=N/NC(=O)c2cccnc2)cc1COc1ccc([N+](=O)[O-])c(C)c1 | i | -15 | -5 | 48 | -8 | 7 | -10 | -177
Cn1c(SCc2ccc(Cl)cc2)nc(C(F)(F)F)cc1=O | i | -1 | 0 | 56 | -9 | -7 | -4 | 22
CCCCn1c(-c2ccco2)nc2ccccc2c1=O | i | -4 | -8 | -9 | 0 | -2 | 1 | .
COc1ccc2[nH]c3c(=O)n(Cc4ccncc4)cnc3c2c1 | i | 4 | 2 | 1 | . | 7 | -9 | 11
COc1ccccc1N1CCN(C2CCCN(S(=O)(=O)c3cccc(Cl)c3)C2)CC1 (stereo unspecified) | i | -4 | 2 | 4 | -2 | -1 | -7 | .
Cc1c(Cl)ccc2c(C(N)=O)cc(-c3ccccn3)nc12 | i | 17 | 31 | 8 | . | -15 | -1 | 5
COc1ccc(C(=O)O)cc1S(=O)(=O)Nc1cc(Cl)ccc1N1CCOCC1 | . | . | . | . | 5 | 2 | 2 | 9
N#Cc1ccccc1S(=O)(=O)N1CCN(CC(=O)Nc2ccccc2C(=O)NC2CC2)CC1 | . | . | . | -1 | 9 | 1 | 0 | .
Cn1c(=O)c2c(nc(SCCN3CCCCC3)n2Cc2ccccc2)n(C)c1=O | i | -10 | -3 | 3 | 11 | -5 | 5 | -57
O=C(Nc1ccc(S(=O)(=O)NC2=NCCCCC2)cc1)c1ccc2ccccc2n1 | i | 26 | 1 | . | -6 | 5 | -12 | -19
CC(=O)NNC(=O)c1csc(-c2csc(C)n2)n1 | i | -13 | -5 | -13 | -3 | 4 | 7 | 12
O=C1c2cc(O)cc(O)c2C(=O)c2c1cc(O)c([C@@H](CO)CCO)c2O | i | . | . | -7 | 9 | 21 | 12 | .
CC(C)C1C(=O)N(Cc2cn(CCC3OCCO3)nn2)CCS(=O)(=O)N1Cc1ccc(-c2ccc(F)nc2)cc1 (stereo unspecified) | . | . | . | . | -2 | -3 | -2 | -23
O=C(CN(CC1CCCO1)C(=O)c1nsc(Cl)c1Cl)NC1CCCC1 (stereo unspecified) | . | 10 | 9 | -8 | . | -2 | 2 | 7
CC(=O)c1cccc(NC(=S)NC2CCCCCCC2)c1 | i | -3 | -2 | -14 | -25 | 1 | -3 | .
Cc1noc(C(=O)NC2CCCCC2)c1Cl | i | 0 | -8 | 0 | -10 | 6 | 4 | 7
O=C(CS(=O)(=O)c1ccccc1)Nc1ccccc1Br | . | . | . | . | 3 | 2 | 2 | -5
COc1ccc(C(=O)NCC(=O)Nc2cccc(S(=O)(=O)NCc3ccco3)c2)cc1OC | i | 3 | 30 | -7 | . | 5 | 1 | 11
O=C(N/N=C/c1cccnc1)c1cc2ccccc2cc1O | i | 14 | -8 | -3 | -19 | 2 | 5 | -12

Source: PubChem BioAssay (several laboratories)
